INS promoter inh: TRM-6 insulin promoter activity inhibition; TRM-6 cells (human fetal islet line), insulin promoter-eGFP reporter, imaging; reporter expression induced with tamoxifen; inhibition, % at 2 µM; 0.9% of 130,000 active; AID 1273;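 active = inhibition above the mean plus 3 SD, with well images judged a real hit on visual review, cut at about 60% in these data, passing the limit was not always enough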
GALR2 agonist: GALR2 (human) receptor agonism; GALR2-expressing cells, agonist activation read-out; activation, %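 (tested at 5 µM)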; 0.48% of 140,000 active;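 active = above mean plus 3 SD of all compounds, about 5% in these data, not always enough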;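 note: 0% = vehicle buffer wells and 100% = reference agonist at full effect; tested in CHO reporter cells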
PKD1 inh: PKD1 (human) kinase inhibition. Q15139. PKD1 kinase fluorescence polarization assay. inhibition, %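 (about 10 µM by stock and volumes)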. 0.056% of 200,000 active. AID 797;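 active = inhibition of 50% or more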;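 note: controls were vehicle for no effect and a reference inhibitor for full effect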
Target sequence (Q15139 whole entry, looked up): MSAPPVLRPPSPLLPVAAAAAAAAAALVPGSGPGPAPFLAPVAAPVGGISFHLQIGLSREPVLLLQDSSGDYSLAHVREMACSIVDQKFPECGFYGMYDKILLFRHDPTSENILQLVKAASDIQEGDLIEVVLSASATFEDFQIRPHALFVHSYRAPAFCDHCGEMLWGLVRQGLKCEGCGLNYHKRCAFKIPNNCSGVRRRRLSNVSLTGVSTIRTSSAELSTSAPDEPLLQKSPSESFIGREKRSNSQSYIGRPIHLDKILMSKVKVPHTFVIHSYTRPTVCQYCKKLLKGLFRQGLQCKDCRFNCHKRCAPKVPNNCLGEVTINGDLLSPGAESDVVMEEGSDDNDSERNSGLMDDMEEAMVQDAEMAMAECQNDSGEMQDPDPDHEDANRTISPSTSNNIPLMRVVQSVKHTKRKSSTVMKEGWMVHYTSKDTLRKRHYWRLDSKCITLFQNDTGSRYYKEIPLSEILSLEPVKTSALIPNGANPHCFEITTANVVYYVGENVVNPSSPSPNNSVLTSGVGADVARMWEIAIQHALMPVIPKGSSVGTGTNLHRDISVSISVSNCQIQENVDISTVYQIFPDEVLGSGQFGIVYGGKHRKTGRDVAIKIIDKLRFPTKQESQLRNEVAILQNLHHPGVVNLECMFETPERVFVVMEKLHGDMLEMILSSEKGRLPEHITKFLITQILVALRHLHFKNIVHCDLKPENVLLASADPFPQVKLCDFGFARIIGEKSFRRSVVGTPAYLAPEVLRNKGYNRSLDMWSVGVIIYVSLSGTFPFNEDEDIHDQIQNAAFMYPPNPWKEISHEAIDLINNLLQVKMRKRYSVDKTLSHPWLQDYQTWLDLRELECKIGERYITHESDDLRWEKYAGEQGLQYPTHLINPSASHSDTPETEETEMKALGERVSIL
HSV augment: HSV replication enhancement. maximum fold increase. 0.005% of 220,000 active. HSV replication augmentation in cells, fold increase. AID 1956;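 active = peak rise of 1.5-fold or more in the series; tested in PC3 cells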;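 note: first round at 10 µM; read as green reporter fluorescence; hits show the peak of a series up to 25 µM; 1 = signal of infected wells without compound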
RGS16-Gao: regulators of human RGS16-Galphao interaction; bead-based flow cytometry RGS16-Galphao binding, fluorescence; actives lie on both sides; binding response (% of control), % at 10 µM; 0.38% of 220,000 active; AID 1441;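 active = below 25% or above 175%, edge rows of some plates excepted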;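 note: Galphao activated by GDP with aluminum fluoride before binding; 100% = wells without compound and 0% = beads without RGS; some results beyond the cut were filed as inactive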
INS promoter inh cell count: also measured in INS promoter inh; calls as there; normalized cell count, %; measured here: cell count, toxicity; reference of the scale not given here;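 cells exposed to compound for 48 h; stained nuclei by imaging scaled within each plate; lower means fewer cells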
HSV augment primary fold: further read-out of HSV augment, marked with its call; fold increase; compound at 10 µM; measured here: primary screen fold increase 10 uM; tested in PC3 cells;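 GFP signal in the first replicate; 1 = infected wells without compound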
The depositor's hits bear a star; i = inactive; · = not tested or not shown.

Labels used below: A = INS promoter inh; B = INS promoter inh cell count; C = GALR2 agonist; D = PKD1 inh; E = HSV augment; F = HSV augment primary fold; G = RGS16-Gao
1: CCOc1ccc(C(C)NC(=O)C2CCC2)cc1 (stereo not drawn)
  A: 38; B: 69; C: -1.7; D: 6; E: i; F: 1; G: 95

2: O=C(Nc1cccc(S(=O)(=O)N2CCCCC2)c1)c1ccc2ncsc2c1
  A: ·; B: ·; C: ·; D: ·; E: i; F: 1.1; G: 100

3: CCOC(=O)C1CCCN(c2ncnc3c2oc2ccccc23)C1 (stereo not drawn)
  A: -21; B: 129; C: -0.5; D: 7; E: i; F: 0.95; G: 101

4: CC1CCN(C(=O)Cn2c(=O)n(CCc3ccccc3)c(=O)c3ccccc32)CC1
  A: 13; B: 80; C: 2.0; D: -12; E: i; F: 0.97; G: 96

5: c1nc(N2CCCCCC2)c2[nH]cnc2n1
  A: ·; B: ·; C: -0.2; D: 12; E: i; F: 0.89; G: 102

6: COC(=O)c1nnn(CC(=O)Nc2cc(Cl)ccc2C)c1C(=O)OC
  A: -24; B: 205; C: -1.9; D: 4; E: i; F: 1.1; G: 99

7: CC(c1ccccc1)N1CCn2c(nc3cc(NS(C)(=O)=O)ccc32)C1 (stereo not drawn)
  A: -7; B: 118; C: ·; D: 0; E: i; F: 1.1; G: 94

8: Cc1csc(NC(=O)c2ccc(C(=O)Nc3nc(C)cs3)cc2)n1
  A: ·; B: ·; C: ·; D: ·; E: i; F: 1.1; G: 103

9: COc1ccccc1CNS(=O)(=O)c1ccc(NC(C)=O)cc1
  A: -39; B: 152; C: -1.2; D: 0; E: i; F: 0.66; G: 104

10: COc1ccc(N2CCN(C(=O)c3cccc(Cn4cc(Cl)cn4)c3)CC2)cc1
  A: 16; B: 68; C: 3.3; D: -7; E: i; F: 0.63; G: 101

11: Cc1cc(C)c(S(=O)(=O)N2CCN(C)CC2)c(C)c1
  A: ·; B: ·; C: -0.8; D: -3; E: i; F: 1; G: 103

12: C(=N\Nc1nc(N2CCCC2)nc(N2CCCC2)n1)/c1cccnc1
  A: ·; B: ·; C: ·; D: -3; E: i; F: 1.1; G: 100

13: CCCCOCCCNC(=O)c1c(-c2ccccc2)noc1C
  A: 21; B: 79; C: -1.6; D: -7; E: i; F: 0.87; G: 107

14: O=C(c1ccco1)N1CCN(S(=O)(=O)c2ccc3c(c2)CCN3C(=O)C2CCC2)CC1
  A: -30; B: 43; C: -0.6; D: -11; E: i; F: 1.1; G: 104

15: CCC(=O)Nc1ccc(C(=O)OCc2ccccc2Cl)cc1
  A: 23; B: 98; C: -1.9; D: 7; E: i; F: 0.74; G: 101

16: CCOC(=O)c1cnc2c(ccc3ccccc32)c1NCCO
  A: ·; B: ·; C: -0.7; D: -7; E: i; F: 0.78; G: 98

17: COCCN1C(=O)c2ccccc2C(C(=O)NCCCN2CCCC2)C1c1c[nH]c2ccccc12 (stereo not drawn)
  A: -15; B: 129; C: 2.3; D: -15; E: i; F: 0.89; G: 32

18: Cc1ccc(Nc2nc(-c3sc(NC(=O)c4ccccc4)nc3C)cs2)cc1
  A: 50; B: 160; C: -1.5; D: 3; E: i; F: 1.2; G: 97

19: C/C(=C\C(=O)c1ccc(F)cc1)NCc1ccc2c(c1)OCO2
  A: 3; B: 74; C: -1.0; D: 3; E: i; F: 0.94; G: 124

20: Cc1ccccc1CSc1nnc(-c2cnccn2)n1C
  A: ·; B: ·; C: ·; D: ·; E: i; F: 1.1; G: 97

21: COc1ccccc1-c1nnc(SCC(=O)NC2CCS(=O)(=O)C2)n1CCc1ccccc1 (stereo not drawn)
  A: ·; B: ·; C: 0.7; D: -9; E: i; F: 1; G: 103

22: CCn1nnnc1NCc1ccc(N2CCCC2)cc1
  A: 42; B: 136; C: -0.4; D: -2; E: i; F: 0.96; G: 320

23: COc1cccc(NC(=S)NNC(=O)Cn2nc(C(F)F)cc2C(F)F)c1
  A: -8; B: 108; C: -2.0; D: -7; E: i; F: 1.1; G: 112

24: C=CCc1cccc(Cl)c1OCCON1C(=O)CCC1=O
  A: -29; B: 102; C: -0.3; D: -3; E: i; F: 0.83; G: 104

25: Cc1cc(NCCN2CCOCC2)n2ncc(-c3ccccc3)c2n1
  A: -33; B: 69; C: -1.7; D: -23; E: i; F: 0.92; G: 112

26: Cc1cc(C)n(CC(O)Cn2c3ccc(Br)cc3c3cc(Br)ccc32)c(=O)n1 (stereo not drawn)
  A: -77; B: 94; C: -4.0; D: 3; E: i; F: 0.76; G: 107

27: O=C(c1ccc(Cl)c(Cl)c1)c1cc(-c2ccccn2)c(N2CCOCC2)s1
  A: 7; B: 107; C: -1.7; D: -6; E: i; F: 0.81; G: 104

28: O=C(O)c1ccc(Cl)c(S(=O)(=O)NCc2cccnc2)c1
  A: ·; B: ·; C: ·; D: -14; E: i; F: 0.92; G: 95

29: CC(C)(C)C1=C[C@@H](CO)C[C@@H](CO)C1
  A: ·; B: ·; C: -2.7; D: 3; E: i; F: 0.9; G: 97

30: N#Cc1nc(-c2ccco2)oc1NCc1ccccc1Cl
  A: ·; B: ·; C: ·; D: ·; E: i; F: 0.98; G: 102

31: O=C(CC1C(=O)CCCC1=O)c1ccccc1
  A: 27; B: 178; C: ·; D: -7; E: i; F: 0.96; G: 99

32: CCOC(=O)c1ccccc1NC(=O)CCNC(=O)Cn1cnc2ccccc2c1=O
  A: ·; B: ·; C: -2.8; D: 7; E: i; F: 1; G: 102

33: O=C(CS(=O)Cc1ccccc1Cl)Nc1ccccc1Cl (stereo not drawn)
  A: -43; B: 76; C: ·; D: -8; E: i; F: 0.96; G: 99

34: CCC(C)NC(=O)C(Sc1ccccc1)c1ccccc1 (stereo not drawn)
  A: ·; B: ·; C: ·; D: -9; E: i; F: 1; G: 98

35: O=C1CSC(c2ccc(Cl)cc2Cl)N1c1ccccn1 (stereo not drawn)
  A: -7; B: 108; C: -0.4; D: -7; E: i; F: 1.1; G: 104

36: Cc1nn(-c2ccccc2)c(Cl)c1/C=N/NC(=O)c1ccc(NS(=O)(=O)c2cccs2)cc1
  A: ·; B: ·; C: ·; D: -10; E: i; F: 0.73; G: 104

37: O=C(CN1CCN(c2ccc([N+](=O)[O-])cc2Cl)CC1)N1CCOCC1
  A: ·; B: ·; C: ·; D: ·; E: i; F: 1; G: 100

38: COc1ccc(/C=N/NC(=O)c2ccncc2)cc1CN1CCOCC1
  A: ·; B: ·; C: ·; D: ·; E: i; F: 0.91; G: 98

39: Cc1cccc(NC(=O)CN2C(=S)NC(C)(C)CC2C)c1 (stereo not drawn)
  A: 30; B: 106; C: -1.0; D: -12; E: i; F: 1; G: 95

40: CN1CCN(c2nc3c(c(=O)n(C)c(=O)n3C)n2Cc2cccc3ccccc23)CC1
  A: -43; B: 157; C: -0.2; D: 3; E: i; F: 1; G: 96

41: COc1ccccc1NC(=S)NNC(=O)c1ccc(Cl)cc1Cl
  A: 6; B: 87; C: -2.6; D: 5; E: i; F: 0.84; G: 101

42: COc1ccc(S(=O)(=O)N2CCOCC2)cc1NS(=O)(=O)/C=C/c1ccccc1
  A: 7; B: 129; C: ·; D: 6; E: i; F: 0.74; G: 107

43: CCCC(=O)NC(=S)Nc1ccc(Cl)cn1
  A: 83*; B: 123*; C: -1.2; D: -4; E: i; F: 1; G: 52

44: CCOC(=O)c1cc2n(n1)C(C(F)(F)F)CC(C)N2 (stereo not drawn)
  A: 4; B: 149; C: -1.6; D: -6; E: i; F: 0.91; G: 112

45: CCC(=O)NC(=S)Nc1ccc(S(=O)(=O)NC(C)=O)cc1
  A: 16; B: 195; C: -1.6; D: -10; E: i; F: 0.97; G: 105

46: Cc1c(C(=O)NCc2ccccn2)oc2ccc(S(=O)(=O)N3CCC4(CC3)OCCO4)cc12
  A: -55; B: 80; C: ·; D: -3; E: i; F: 1; G: 113

47: O=C1NCCCCC1NS(=O)(=O)c1ccc(F)c(F)c1 (stereo not drawn)
  A: ·; B: ·; C: ·; D: ·; E: i; F: 1.1; G: 97

48: O=C(CSc1ccc2ccccc2c1)Nn1cnnc1
  A: -42; B: 117; C: 0.2; D: -2; E: i; F: 0.97; G: 95

49: c1ccc(-c2noc(CSc3nc4ccccc4o3)n2)cc1
  A: ·; B: ·; C: -3.3; D: 2; E: ·; F: ·; G: 102

50: Cn1c(C(=O)OCC(=O)NCC2CCCO2)cc2sccc21 (stereo not drawn)
  A: -95; B: 78; C: -2.4; D: -7; E: i; F: 0.95; G: 102

Carrying on:
Labels used below: A = INS promoter inh; B = INS promoter inh cell count; C = GALR2 agonist; D = PKD1 inh; E = HSV augment; F = HSV augment primary fold; G = RGS16-Gao
51: COc1cccc(C(=O)CSc2nc3ccccc3n2CC(=O)N2CCOCC2)c1
  A: 19; B: 130; C: -1.7; D: -10; E: i; F: 0.91; G: 103

52: Cc1cc(C)cc(OCc2nnc(SCC(=O)N3CCN(c4ccccc4)CC3)o2)c1
  A: -10; B: 56; C: -0.5; D: 1; E: i; F: 1; G: 95

53: CCOC(=O)c1ccc(N2C(=O)CC(SCC(=O)Nc3ccc(S(N)(=O)=O)cc3)C2=O)cc1 (stereo not drawn)
  A: -21; B: 104; C: ·; D: 4; E: i; F: 0.86; G: 107

54: Cc1ccc(S(=O)(=O)NC(C)(C)CSc2nncn2N)cc1
  A: 2; B: 126; C: -2.3; D: -2; E: i; F: 0.95; G: 104

55: CC(C)C(NC(=O)C12CC3CC(CC(C3)C1)C2)C(=O)N/N=C/C1=C(N2CCOCC2)C(=C\c2cccc([N+](=O)[O-])c2)/CC1 (stereo not drawn)
  A: -2; B: 118; C: -1.2; D: -2; E: i; F: 0.92; G: 101

56: O=C1N=C(N2CCOCC2)S/C1=C\c1cccnc1
  A: -26; B: 138; C: ·; D: -3; E: i; F: 1.1; G: 101

57: COc1cc(C(C(=O)NCc2ccccc2)N(Cc2ccco2)C(=O)c2cnccn2)cc(OC)c1OC (stereo not drawn)
  A: 4; B: 43; C: ·; D: -6; E: i; F: 1.1; G: 110

58: O=C(N1CCOCC1)N1c2ccccc2CC(N2CCOCC2)c2ccccc21 (stereo not drawn)
  A: -69; B: 85; C: -1.1; D: -7; E: i; F: 0.93; G: 89

59: Cn1c(SCC(=O)c2ccccc2)nnc1-c1cnccn1
  A: 15; B: 99; C: -1.9; D: 1; E: i; F: 0.84; G: 96

60: CCCCc1ccc(NC(=S)NCC2CCCO2)cc1 (stereo not drawn)
  A: 19; B: 130; C: ·; D: 4; E: i; F: 1; G: 104

61: Cn1c(CN2CCCC2)nc2cc(NC(=O)COc3ccccc3)ccc21
  A: 30; B: 93; C: 1.3; D: -6; E: i; F: 0.92; G: 103

62: O=C1OC(c2cccc([N+](=O)[O-])c2)C2(CCCC2)C(=O)C12CCCCC2 (stereo not drawn)
  A: 16; B: 65; C: -1.4; D: 4; E: i; F: 1.1; G: 85

63: Cc1cc(C)cc(N(CC(=O)NCC2CCCO2)S(=O)(=O)c2c(C)noc2C)c1 (stereo not drawn)
  A: ·; B: ·; C: -1.9; D: -7; E: i; F: 0.88; G: 103

64: CC(C)C(=O)Nc1ncc(Cc2ccc(Cl)cc2)s1
  A: 43; B: 76; C: ·; D: 0; E: i; F: 0.88; G: 93

65: CNC(=O)c1ccc(NC(=O)c2cccc(C(F)(F)F)c2)cc1
  A: ·; B: ·; C: ·; D: 2; E: i; F: 0.89; G: 97

66: COc1ccc(C[C@@H]2CN3C(=NC[C@@H]3Cc3ccc(O)cc3)N2C[C@H](C)NC(=O)CCC2CCCCC2)cc1
  A: ·; B: ·; C: ·; D: ·; E: i; F: 0.8; G: 93

67: CC/C(=C(\c1ccc(O)cc1)c1ccc(OCCN(C)C)cc1)c1ccccc1
  A: ·; B: ·; C: ·; D: ·; E: i; F: 0.66; G: 101

Compound activity as filed in PubChem.
